Vaccinia mCherry: qHTS for Stage-Specific Inhibitors of Vaccinia Orthopoxvirus: mCherry Reporter Primary qHTS; Vaccinia virus mCherry reporter infection, fluorescence; about a quarter of the inactives have no number; Potency, µM (titrated, usually from 36.5 µM), for inactives: top-dose activity change, negative = inhibition, usual class: inhibitors; 310,000 tested, 0.63% active; AID 720579, 2013; active = well fitted inhibition curve with a large enough effect; inconclusive = small, poorly fitted or top-dose-only effect; inactive = no such curve, though single readings can be large or run the other way; tested in A549 cells; further: nearly all actives have a fitted effect of over 35% in size; inactives centre near -10
VACV Venus inh: qHTS for Stage-Specific Inhibitors of Vaccinia Orthopoxvirus: Venus Reporter Primary qHTS; Vaccinia virus Venus reporter expression, fluorescence; Potency, µM (doses to about 36.5 µM), inactives show top-dose activity change, negative = inhibition, hits mostly inhibitors; 330,000 tested, 0.46% active; AID 720580, 2013; active means well fitted inhibition curve with a large enough effect; inconclusive means small, poorly fitted or top-dose-only effect; inactive means no such curve, though single readings can be large or run the other way; tested in A549 cells; further: nearly all actives have a fitted effect of over 30% in size; inactives centre near -10
Starred values were filed as active, the others as inactive; i = inactive; ? = inconclusive; . = no result given; & = joins results of further samples; [ ] = dose if it differs, or a comment. On the % scale 0 is the no-effect control and ±100 the full control effect; potency means the concentration at half of the fitted maximal effect. Rows are unselected, and some 0.88% of all compounds hit somewhere here.

Values in the order – Vaccinia mCherry, VACV Venus inh
- OC(Cc1nc2ccccc2[nH]1)c1ccccc1Cl (stereo not drawn)
→ i, -11%
- CSc1nc(C)c2c(n1)N(c1ccc(F)cc1)CC2
→ ., -10%
- CCCCn1c(N)c(N(CC(C)C)C(=O)C2CCCO2)c(=O)[nH]c1=O (stereo not drawn)
→ -12%, -2%
- CCN(CC)S(=O)(=O)c1ccc(O)c(C(=O)OCC(=O)NC23CC4CC(CC(C4)C2)C3)c1
→ -26%, -17%
- COc1ccc(CNC(=O)C2CCN(c3nnc(-n4cccc4CNc4ccc(C)cc4)s3)CC2)c(OC)c1
→ -27%, -23%
- CCOc1ccc(S(=O)(=O)N2CCCC(C(=O)N3CCN(CC)CC3)C2)cc1Cl (stereo not drawn)
→ -12%, -9%
- COC(=O)c1ccc(OC)c(CN2CCCN(Cc3cc(C)ccc3C)S2(=O)=O)c1
→ -9%, -8%
- Cc1cc(NC(=O)c2ccc(NC(=O)C3CC3)cc2)no1
→ -11%, -5%
- O=C(Nc1sc2c(c1C(=O)NCCO)CCCC2)c1ccco1
→ i, -14%
- CCN(CC(=O)Nc1cc(S(=O)(=O)N2CCOCC2)ccc1C)Cc1ccccc1
→ -11%, -8%
- O=C(COc1ccccc1[N+](=O)[O-])N/N=C/c1cccc(OC(=O)c2ccc3c(c2)OCO3)c1
→ i, -18%
- CCOc1ccc(-n2c(C)c(C(C)=O)c(C(C)=O)c2C)cc1
→ ., -27%
- CC(=O)Nc1nc(C)c(-c2csc(Nc3ccc(S(N)(=O)=O)cc3)n2)s1
→ -1%, -6%
- CCOCC(O)CNC(=O)c1ccc(OC2CCN(C(=O)c3cccnc3)CC2)cc1 (stereo not drawn)
→ -2%, -15%
- COc1ccc(OCCC(=O)OCC(=O)NCc2ccc(F)cc2)cc1
→ i, -5%
- COCCN(C(=O)CSc1nnc(C)n1-c1ccccc1)c1c(N)n(Cc2ccccc2)c(=O)[nH]c1=O
→ -6%, -6%
- O=C(NCCc1csc(-c2cccnc2)n1)c1ccc(F)c(F)c1
→ -10%, -5%
- CC(=O)Nc1cccc(NC(=O)C2CC3CCC2C3)c1 (stereo not drawn)
→ -5%, -11%
- Cc1ccc(OC(=O)CSc2nnc(-c3cccs3)o2)cc1
→ -6%, -4%
- Nn1c(SCc2ccc(F)cc2)nnc1-c1cccnc1
→ -5%, -21%

New compounds follow
Values in the order – Vaccinia mCherry, VACV Venus inh
- CCN(CC)CCN1C(=O)c2oc3ccccc3c(=O)c2C1c1ccccc1 (stereo not drawn)
→ -9%, -3%
- Oc1ccccc1/C=N/n1c(COc2ccccc2)n[nH]c1=S
→ -2%, -7%
- CCn1nnc2cc(C(=O)Nc3cc(S(C)(=O)=O)ccc3Cl)ccc21
→ -14%, -4%
- S=C(Nc1ccc(CN2CCCCC2)cc1)Nc1cccc(Cl)c1Cl
→ -4%, -14%
- Cc1nc(NC(=O)C2CC3CCCC(C2)C3=O)sc1C (stereo not drawn)
→ ., -6%
- COc1ccc(NC2=C(C)C(=O)CC2)cc1
→ ., 2%
- CC1(C)CC(=O)C2=C(C1)N(CCN1CCOCC1)C1=C(C(=O)CC(C)(C)C1)C2c1ccc(Cl)c([N+](=O)[O-])c1
→ -4%, -12%
- CCOC(=O)C1=C(C)N(CCCC(=O)O)C(=O)NC1c1ccccc1OS(=O)(=O)c1ccccc1[N+](=O)[O-] (stereo not drawn)
→ i, -15%
- Cc1ccn2c(Nc3ccccc3C)c(-c3cccnc3)nc2c1
→ ?, -1%&-27%
- O=C(CCc1nc2ccccc2c(=O)[nH]1)NNC(=O)COc1ccccc1Cl
→ -13%, -8%
- Cc1ccc(C(C)C)c(OCCN2CCc3ccccc3C2)c1
→ -29%, -12%
- O=C1C2C3C=CC(CC3)C2C(=O)N1c1ccc(F)cc1 (stereo not drawn)
→ i, -16%
- CCCc1nn2c(=O)cc(O)nc2s1
→ -7%, 0%
- Clc1ccccc1/C=C/C=N/Nc1nc(N2CCOCC2)nc(N2CCOCC2)n1
→ -23%, -25%
- COc1ccc(C(=O)NCc2ccc3c(c2)OCO3)c(OC)c1
→ -19%, -3%
- O=Cc1c(Cl)nc2ccccn2c1=O
→ -24%, -13%
- C=CCn1c(SCC(=O)Nc2ccccc2)nc2scc(-c3cccs3)c2c1=O
→ -13%, -6%
- OC(C1=C/C(=C\c2ccncc2)c2ccccc21)c1ccncc1 (stereo not drawn)
→ ?, ?
- O=CN(Cc1nc2ccccc2[nH]1)c1ccc(C(=O)O)cc1
→ -12%, 4%
- Cc1ccc(S(=O)(=O)NC(=O)Nc2ccccc2)cc1
→ -7%, 0%

Next section (three carried over from the part before).
Values in the order – Vaccinia mCherry, VACV Venus inh
- OC(C1=C/C(=C\c2ccncc2)c2ccccc21)c1ccncc1 (stereo not drawn)
→ ?, ?
- O=CN(Cc1nc2ccccc2[nH]1)c1ccc(C(=O)O)cc1
→ -12%, 4%
- Cc1ccc(S(=O)(=O)NC(=O)Nc2ccccc2)cc1
→ -7%, 0%
- COc1ccc(-c2csc(NC(=O)C3CCN(c4ncnc5sc(C)c(C)c45)CC3)n2)cc1OC
→ -18%, ?
- CCc1ccc2c(CN3CCN(Cc4ccccc4)CC3)cc(=O)oc2c1
→ 55%[activator], -17%
- Cc1ccc(N2CC(C(=O)Nc3ccc(S(=O)(=O)Nc4nccs4)cc3)CC2=O)cc1 (stereo not drawn)
→ -14%, -6%
- CC(C)n1cnc2c(NCc3ccc(S(N)(=O)=O)cc3)nc(NCc3ccc(S(N)(=O)=O)cc3)nc21
→ -10%, 0%
- Cc1nnc(C)n1/N=C/c1cccn1C
→ i, -18%
- COc1ccc(C(=O)Nc2ccc(C)cn2)cc1S(=O)(=O)N1CCCc2ccccc21
→ -11%, -19%
- O=C(O)C1=C[C@H](c2csc3ccccc23)C[C@H](OCCCCO)O1
→ -15%, -4%
- Cc1onc(-c2c(F)cccc2Cl)c1C(=O)OCC(=O)N(C)c1ccccc1
→ -17%, -21%
- CCCCc1ccc(NC(=S)Nc2cccnc2)cc1
→ -12%, -8%
- Cc1ccc(NC(=O)OCc2cn(-c3ccc(Cl)cc3)nn2)cc1
→ -10%, -13%
- O=C(CSc1ncnc2ccccc12)Nc1ccc2c(c1)OCO2
→ 0%, 1%
- CCOc1ccc(C(=O)N2CCc3cc(OC)c(OC)cc3C2)cc1OCC
→ -10%, -16%
- CCC1CN(C(=O)N2CCC(C(=O)NCCN(CC)CC)CC2)c2ccccc2O1 (stereo not drawn)
→ 1%, -5%
- O=C(NC(c1ccc(Cl)cc1)c1cnccn1)C1CCN(CCOc2ccc(F)cc2)CC1 (stereo not drawn)
→ i, -13%
- CCCCn1c2nc3ccccc3nc2c2c(=O)n(CC(C)C)cnc21
→ i, 0%
- c1ccc(CN=C2NN=C(c3cc4ccccc4o3)CS2)cc1
→ -14%, -10%
- COc1ccc(OC)c(C(=O)Nc2c(O)ccc3ccccc23)c1
→ 13µM*, ?
- CCOC(=O)C1=C(COC(=O)CNC(=O)c2cccc(C)c2)NC(=O)NC1C (stereo not drawn)
→ -10%, -10%
- CC(=O)Nc1ccc(C(=O)OCC(=O)Nc2ccc(Cl)cc2C(=O)c2ccccc2)cc1
→ -17%, -8%
- CC1=C(C)C(OCCCl)N(c2cc(O)c(Cl)cc2F)C1=O (stereo not drawn)
→ -12%, -2%

More entries:
Values in the order – Vaccinia mCherry, VACV Venus inh
- CN(C(=O)CSc1nc2ccc(Br)cc2c(=O)n1Cc1ccco1)C1CCS(=O)(=O)C1 (stereo not drawn)
→ i, 3%
- COc1ccc(CCNC(=O)c2ccc(NS(=O)(=O)c3ccc4[nH]c(=O)[nH]c4c3)cc2)cc1OC
→ -2%, -10%
- Cc1cc(C)c2nc(NNC(=O)c3cc(=O)c4ccccc4o3)sc2c1
→ -17%, -24%
- COc1ccccc1-c1nn2c(=O)cc(CN3CCN(C(=O)Nc4ccc(C)cc4Cl)CC3)nc2s1
→ ?, ?
- CCOCCCNC(=O)C(c1ccc(Cl)cc1)N(Cc1cccs1)C(=O)CNC(C)=O (stereo not drawn)
→ -12%, -8%
- CN(C1CCCCC1)S(=O)(=O)c1cccc(C#N)c1
→ i, -25%
- O=C(O)Cc1coc(-c2ccc(F)cc2)n1
→ i, -14%
- COCCn1nnnc1C(c1cccc(OC)c1OC)N1CCN(C2CCCCC2)CC1 (stereo not drawn)
→ ., -9%
- CCCCn1c(N)c(N(CCOC)C(=O)CSc2nnc(-c3ccc(C(C)(C)C)cc3)n2N)c(=O)[nH]c1=O
→ -13%, -10%
- C=C[C@@H]1c2cc(C)ccc2N(S(=O)(=O)c2ccc(C)cc2)[C@H](c2ccc(C(C)(F)F)cc2)C1(C#N)C#N
→ -12%, -6%
- Cc1ccc(C)c(/C=C/C(=O)c2ccccc(=O)c2O)c1
→ 14µM*, ?
- CSC1=NC(C)(C)C=C(/C=C/c2c(Cl)cccc2Cl)N1
→ -13%, -20%
- OC[C@@H](O)[C@@H](O[C@@H]1O[C@H](CO)[C@H](O)[C@H](O)[C@H]1O)[C@H](O)[C@@H](O)CO
→ i, -4%
- OCCN1CCN(C(=S)NCCc2ccccc2)CC1
→ -13%, -10%
- Cc1ccc(NC(=O)C2CCN(C(=O)c3ccc(Cl)cc3)CC2)nc1
→ -12%, -7%
- CC(=O)Nc1ccc(S(=O)(=O)N2CCN(C34CC5CC(CC(C5)C3)C4)CC2)cc1
→ -13%, -4%
- N#Cc1cc2c(nc1SCC(=O)Nc1sc3c(c1C#N)CCC3)CCC2
→ -11%, -1%
- COC(=O)c1c(-c2cccc3ccccc23)csc1NC(=O)Cc1ccc(OC)c(OC)c1
→ ., ?
- CC(/C=N\N1CCN(Cc2ccc(C)cc2)CC1)=C\c1ccccc1
→ -13%, 4%
- O=C(c1ccc(F)cc1)c1ccc(CN2C(=O)c3ccccc3C2=O)o1
→ -6%, -8%

The listing continues.
Values in the order – Vaccinia mCherry, VACV Venus inh
- CCCN(CCC)CC(O)Cn1cc(/C=C/C(=O)c2ccc(OC)cc2)c2ccccc21 (stereo not drawn)
→ i, -25%
- COC(=O)/C=C1\OCc2ccc(C)cc21
→ -14%, 0%
- COc1cccc(CN2CCN(C(=O)c3ccco3)CC2)c1OC
→ ., -17%
- Cc1ccc(Nc2cc(C)nc(NCc3ccccc3)n2)cc1
→ ?, ?
- COc1cc(C(=O)NNC(=O)COc2ccc(Cl)cc2)ccc1OCC(=O)N1CCOCC1
→ -14%, -4%
- Cc1ccc(NC(=O)CSc2nc3n[nH]c(C)c3c(=N)n2-c2cccc(C)c2)cc1
→ -30%, ?
- c1ccc2c(c1)nc(Nc1ccc3c(c1)OCO3)c1nnnn12
→ ., -4%
- CCOC(=O)CN1CC23C=CC(O2)C(C(=O)NCCc2ccccc2)C3C1=O (stereo not drawn)
→ -7%, -1%

Structures from the list above that have fluorine, in the order listed:
Values in the order – Vaccinia mCherry, VACV Venus inh
- CSc1nc(C)c2c(n1)N(c1ccc(F)cc1)CC2
→ ., -10%
- COc1ccc(OCCC(=O)OCC(=O)NCc2ccc(F)cc2)cc1
→ i, -5%
- O=C(NCCc1csc(-c2cccnc2)n1)c1ccc(F)c(F)c1
→ -10%, -5%
- Nn1c(SCc2ccc(F)cc2)nnc1-c1cccnc1
→ -5%, -21%
- O=C1C2C3C=CC(CC3)C2C(=O)N1c1ccc(F)cc1 (stereo not drawn)
→ i, -16%
- Cc1onc(-c2c(F)cccc2Cl)c1C(=O)OCC(=O)N(C)c1ccccc1
→ -17%, -21%
- O=C(NC(c1ccc(Cl)cc1)c1cnccn1)C1CCN(CCOc2ccc(F)cc2)CC1 (stereo not drawn)
→ i, -13%
- CC1=C(C)C(OCCCl)N(c2cc(O)c(Cl)cc2F)C1=O (stereo not drawn)
→ -12%, -2%
- O=C(O)Cc1coc(-c2ccc(F)cc2)n1
→ i, -14%
- C=C[C@@H]1c2cc(C)ccc2N(S(=O)(=O)c2ccc(C)cc2)[C@H](c2ccc(C(C)(F)F)cc2)C1(C#N)C#N
→ -12%, -6%
- O=C(c1ccc(F)cc1)c1ccc(CN2C(=O)c3ccccc3C2=O)o1
→ -6%, -8%

Bioassay records (PubChem)
